Ba CapD inh: inhibitors of Bacillus anthracis CapD enzyme. purified CapD enzyme, fluorescence intensity read-out; stronger effect = lower value; some hits fall short of the stated cut. z-score (no concentration beside the values). actives 0.23% (n = 140,000). AID 492967;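 active = z-score under -4 in either of two replicates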;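 also: stock transfer was 100 nL into about 40 µL; score is relative to mean and spread of the plate; one replicate is shown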
AID504770: growth inhibitors of E. coli YBA685 in a screen for V. cholerae RctB (chromosome II replication) inhibitors. E. coli YBA685 rctB-dependent plasmid, OD600 growth, 3 h; stronger effect = lower value. z-score (concentration not given with the values). actives 0.27% (n = 130,000). AID 504770;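 active = z-score under -2 on both plates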;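 also: wells of about 30 µL received 100 nL stock; score is relative to mean and SD of the test wells; the first replicate is given; strong numbers were not always called active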
An asterisk follows results filed as active; / = not tested or not shown.

Each structure is followed by: AID504770 | Ba CapD inh
1: O=C(c1csc2c1CCCC2)N1CCCCCCC1
    -1.15 | -0.195
2: Cc1[nH]c2ccccc2c1C(C#N)(C#N)C1C(=O)c2ccccc2C1=O
    -0.45 | -0.455
3: COc1ccc(OCC(=O)c2ccc(OCC3OC(OC(C)=O)C(OC(C)=O)C(OC(C)=O)C3OC(C)=O)cc2O)cc1 (stereo not drawn)
    / | -0.01
4: CCOCCOC(=O)C1=C(C)NC2=C(C(=O)CC(c3cccs3)C2)C1c1cc(Br)ccc1F (stereo not drawn)
    / | 50.2
5: CCOC(=O)N1CCC(NC(=O)C2CCN(c3nnc(-n4cccc4CNc4ccc(OCC)cc4)s3)CC2)CC1
    -0.1 | 0.1
6: Cc1ccc2c(c1)c1c(n2CC(O)CNC(C)(C)C)CCCC1 (stereo not drawn)
    0 | 1.23
7: O=C(O)CC1S/C(=N/N=C2\CSC(=O)N2)NC1=O (stereo not drawn)
    0.2 | /
8: CCCOC(=O)COc1ccc2c3c(c(=O)oc2c1)CCC3
    0.05 | 11.1
9: CC(=O)Nc1ccc(Cl)c(Cl)c1
    -1.95 | 0.4
10: Cc1cc(NC(=O)CSc2nc3nccnc3c(=O)n2Cc2ccccc2)n[nH]1
    1 | 0.29
11: CCc1cccc2c1=NC(=O)C=2c1c(C)[nH]n(-c2ccccc2)c1=O
    -0.6 | 0.275
12: O=c1c(Cc2cc(Cl)cc(Cl)c2O)c(O)nc2n1CCCS2
    0.75 | -0.045
13: CN1CCN(CC(=O)Nc2ccccc2)CC1
    -0.85 | 0.11
14: COC(=S)Nc1c(Br)cc(C)cc1Br
    0.1 | -0.245
15: O=C(O/N=C1\CCCCC1Cn1ccnc1)c1ccc(Cl)cc1 (stereo not drawn)
    -0.05 | 0.275
16: COc1ccc(Cl)cc1S(=O)(=O)N1CCN(CCN2CCOCC2)CC1
    / | 0.355
17: c1ccc(Nc2nc(-c3ccccc3)nc3ccccc23)cc1
    -0.05 | 12.4
18: COC(OC)c1ccc(C#N)c(SCC#N)n1
    -0.15 | -0.205
19: CCN(C(=O)CSc1ncccc1C(=O)OC(C)C)c1cccc(C)c1
    2.15 | 0.16
20: COC(=O)c1cccc(CN2C(=O)CSC2=O)c1
    / | -0.115
21: COc1ccc(NC(=O)CSc2ncnc3c2oc2ccccc23)cc1
    -0.55 | 0.04
22: COc1ccc(CN2CCCC2)cc1OC
    -0.55 | 0.13
23: C/C(=N\NC(=O)c1ccc(N)cc1)C(C)(C)C
    -2.7 | /
24: CC1CNc2ccccc2NC1=O (stereo not drawn)
    -0.45 | /
25: CC(C)(C)c1ccc(C(=O)NC2CC3CCC2(C)C3(C)C)cc1 (stereo not drawn)
    / | -0.01
26: CC(=O)N1c2ccc(S(=O)(=O)N3CCCC3C(=O)NCc3ccc4c(c3)OCO4)cc2CC1C (stereo not drawn)
    1.1 | 0.385
27: CSc1sc(C(=O)c2ccc(Cl)cc2)c2c1C(=O)CCC2
    -0.3 | -0.445
28: O=C1Nc2ccccc2/C1=C/c1cccnc1
    -1.05 | -3.77
29: Cc1ccc(C(=O)Cn2c3ccccc3n3ncnc23)cc1
    2.15 | 0
30: Cc1nn(-c2ccccc2)nc1C(=O)Nc1nnc(C2CC2)s1
    / | 1.04

Each structure is followed by: AID504770 | Ba CapD inh
31: CCc1cc(Br)ccc1S(=O)(=O)N1CCC(C#N)(c2ccccc2)CC1
    / | 0.125
32: COc1ccc(N(Cc2cc3ccc(C)cc3[nH]c2=O)C(=O)C(C)C)cc1
    -0.3 | /
33: O=C(O)c1occc1-c1ccccc1
    -0.25 | /
34: C=CCC1c2cccc(C(=O)O)c2C(=O)N1c1cccc(OC)c1 (stereo not drawn)
    -0.8 | -1.29
35: NC(=S)COc1ccc(F)cc1
    -0.5 | /
36: COc1ccc(CNC(=O)C(NS(=O)(=O)c2cccc3nsnc23)C(C)C)cc1 (stereo not drawn)
    0.25 | -0.475
37: Cc1cc(N2CCCC2)n2c(nc3ccccc32)c1C#N
    0.4 | -1.35
38: O=C(O)CNS(=O)(=O)c1ccc(Cl)c(Cl)c1
    2 | -1.52
39: N#Cc1cc(C(F)(F)F)ccc1Sc1ccc(Br)cc1
    / | -0.325
40: CCc1ccc(NC(=O)CCc2ccc(C)o2)cc1
    -1.15 | -0.31
41: CCCn1nnnc1COC(=O)CSc1cc(C)c2ccccc2n1
    -0.65 | /
42: CC(C)Oc1ccc(CNC(=O)Oc2ccccc2)cc1
    0.15 | -0.125
43: COc1ccc(NC(=O)C2CCCCN2N)cc1OCC(C)C (stereo not drawn)
    -0.25 | 0.46
44: CC(C)N(C(=O)CSc1cccc[n+]1[O-])c1ccccc1
    -0.3 | /
45: CCc1ccccc1Nc1cc(C(=O)NCc2ccco2)c2ccccc2n1
    0.75 | -0.145
46: Nc1ccccc1SC1=CS(=O)(=O)c2ccccc21
    -0.9 | -0.185
47: O=C(O)CCC(=O)N1CCN(c2nc(-c3ccccc3Cl)c3cc(Br)ccc3n2)CC1
    -0.3 | 0.1
48: CCCCC(=O)C1C(=O)CC(c2ccccc2)CC1=O (stereo not drawn)
    -0.65 | 0.54
49: COc1cc2nc(N=C(N)N)[nH]c(=O)c2cc1OC
    0.2 | 61.1
50: CCc1ccc(C2(C)CC(C)(C)N(C(=O)c3sc4cc([N+](=O)[O-])ccc4c3Cl)c3ccccc32)cc1 (stereo not drawn)
    / | -0.31
51: C=CCc1c(C)c(C#N)c2nc3ccccc3n2c1NCCc1ccc(OC)c(OC)c1
    0.7 | 6.56
52: O=C(Nc1nnc(-c2ccccc2)o1)c1nc2ccccc2s1
    0.65 | -0.555
53: COc1ccc(S(=O)(=O)N2CCN(CC(=O)Nc3ccc(OC)cc3OC)CC2)cc1
    -0.6 | 0.16
54: CC1CCN(C(=O)CSc2nc3ccccc3c(=O)[nH]2)CC1
    -0.4 | /
55: N#Cc1cc2cc3c(cc2nc1SCC(=O)N1CCN(c2ccc(F)cc2)CC1)OCCO3
    -0.05 | /
56: O=S(=O)(c1ccccc1)c1nc(-c2ccccc2)oc1N1CCCC1
    -0.65 | 0.805
57: O=C(/C=C/c1cccc(Cl)c1)NCc1ccncc1
    -1.15 | 0.57
58: O=C(NC1CCC(NC(=O)c2ccccc2F)CC1)c1ccccc1 (stereo not drawn)
    -0.25 | -0.095
59: CC(C)(C)C(=O)CSc1nc2[nH]c(=O)[nH]c(=O)c2s1
    -0.6 | /
60: COc1ccc(C2=CC(=O)OC3(CCCCC3)O2)cc1
    -0.6 | 2.01

Each structure is followed by: AID504770 | Ba CapD inh
61: COc1ccc2c(c1)sc(=NC(=O)COCC(=O)N=c1sc3cc(OC)ccc3n1C)n2C
    1.05 | /
62: CC(C)COc1ccc(OCC(C)C)c(N)c1
    -0.65 | -0.1
63: CCCN1N=C(C(C)(C)C)Cn2c1nc1c2c(=O)n(CCC)c(=O)n1C
    -0.3 | /
64: CCOc1cccc(C(O)CNC)c1 (stereo not drawn)
    -0.6 | /
65: O=C(CCc1n[nH]c(=O)[nH]c1=O)NCc1ccccc1
    -0.55 | /
66: CC1CCc2sc(-c3nnc(SCC4CCOCO4)o3)cc2C1 (stereo not drawn)
    -0.95 | /
67: CCC1CCCCN1C(=O)c1cc2ccccc2oc1=O (stereo not drawn)
    -0.85 | 0.65
68: CC(C)Cn1nccc1N
    -0.6 | /
69: CC1(C)C2CCC1(C)C(NC(=O)C1COc3ccccc3O1)C2 (stereo not drawn)
    0.7 | /
70: O=C(COC(=O)/C=C/c1ccccc1Cl)Nc1cccnc1Cl
    1.35 | 0.5
71: CCCCC(=O)Nc1c2c(nn1C(C)(C)C)CS(=O)C2 (stereo not drawn)
    / | 0.185
72: CCOC(=O)CS(=O)(=O)c1nc2c(c(C(F)(F)F)n1)CCc1ccccc1-2
    0 | /
73: O=C(O)CCC(=O)Nc1cc(Cl)ccc1Cl
    1.3 | 0.46
74: CCOC(=O)c1cn(-c2nonc2N)nn1
    0.2 | -0.075
75: COc1ccc(C2C(C(=O)OCC(=O)N3CCCCC3)CCC(=O)N2c2ccc(OC)cc2)cc1 (stereo not drawn)
    -0.2 | /
76: COc1nc(NCCc2ccc(OC)c(OC)c2)nc(N2CCC(Cc3ccccc3)CC2)n1
    1.35 | -0.385
77: N#Cc1ccc(C23CC4CC(CC(C4)C2)C3)nc1SCc1ccccn1
    -0.3 | -0.585
78: Cc1ccn(CCC(=O)NCCc2ccccc2)n1
    1.5 | -2.63
79: Clc1ccc(SCc2cn3cccnc3n2)cc1
    0.15 | 3.71
80: O=C(CSc1nnnn1Cc1ccccc1)n1c2c(c3c1CCCC3)CCCC2
    0.25 | 0.37
81: CCC(=O)n1cc(/C=c2\sc3nc4ccccc4n3c2=O)c(-c2ccc(F)cc2)n1
    / | -0.12
82: O=C(c1cccs1)N(Cc1ccc(Br)cc1)c1ccc(F)cc1
    -0.3 | 0.175
83: N=C1N=C2C=CC=CN2C(=O)/C1=C\c1ccccc1
    0.9 | /
84: Cc1noc(C)c1COc1ccc(CC(=O)N(C)Cc2ccc3c(c2)OCO3)cc1
    -0.25 | /
85: Cc1ccc(OC(=O)NC2(C(F)(F)F)OCCO2)cc1
    -0.05 | -0.325
86: COc1c2c(cc3c1OCO3)CCN(C)C2
    / | -0.34
87: O=C(NC1CCCCNC1=O)c1csc2ccccc12 (stereo not drawn)
    0.1 | 0.365
88: Cc1c(Cl)cccc1N=C1NN=C(c2c(N)n(C)c(=O)[nH]c2=O)CS1
    0.45 | /
89: CCOC(=O)C1=C(N)Oc2ccc3ccccc3c2C1c1cccc([N+](=O)[O-])c1 (stereo not drawn)
    / | -0.115
90: CS(=O)(=O)NC1CCN(Cc2ccccc2)CC1
    -0.25 | 0.595

Looked up by compound from the entries so far (five):
Each structure is followed by: AID504770 | Ba CapD inh
78: Cc1ccn(CCC(=O)NCCc2ccccc2)n1
    1.5 | -2.63
61: COc1ccc2c(c1)sc(=NC(=O)COCC(=O)N=c1sc3cc(OC)ccc3n1C)n2C
    1.05 | /
84: Cc1noc(C)c1COc1ccc(CC(=O)N(C)Cc2ccc3c(c2)OCO3)cc1
    -0.25 | /
80: O=C(CSc1nnnn1Cc1ccccc1)n1c2c(c3c1CCCC3)CCCC2
    0.25 | 0.37
90: CS(=O)(=O)NC1CCN(Cc2ccccc2)CC1
    -0.25 | 0.595

Back to the main list, repeating the 3 entries before the break.
Each structure is followed by: AID504770 | Ba CapD inh
88: Cc1c(Cl)cccc1N=C1NN=C(c2c(N)n(C)c(=O)[nH]c2=O)CS1
    0.45 | /
89: CCOC(=O)C1=C(N)Oc2ccc3ccccc3c2C1c1cccc([N+](=O)[O-])c1 (stereo not drawn)
    / | -0.115
90: CS(=O)(=O)NC1CCN(Cc2ccccc2)CC1
    -0.25 | 0.595
91: CC(C)(C)c1ccc(C(=O)c2ccc3c(c2)CCC3)cc1
    / | -0.665
92: O=C1c2cccc3cccc(c23)C(=O)N1c1ccc(O)cc1
    -0.75 | -0.09
93: CNC(=O)c1cc(S(=O)(=O)Nc2ccc3c(c2)OCCO3)ccc1C
    -0.45 | -0.03
94: O=C(CC1Sc2ccccc2NC1=O)N/N=C/c1ccccc1Sc1ccc(Cl)cc1 (stereo not drawn)
    / | 0.17
95: CCCCNC(=S)N1CC2CC(C1)c1cccc(=O)n1C2 (stereo not drawn)
    / | -0.2
96: N#CCSc1ccccc1NC(=O)COC(=O)Cc1c[nH]c2ccccc12
    0.1 | /
97: O=c1c2cnn(CCO)c2ncn1Cc1ccc(F)cc1
    0.5 | /
98: O=C(O)CC(CC(=O)Nc1ccc(Oc2ccc(Cl)cc2)cc1)c1ccccc1 (stereo not drawn)
    / | -0.455
99: CCOC(=O)C1CCN(C(=O)Cn2cc(C(=O)c3ccco3)c3ccccc32)CC1
    -0.85 | -0.465
100: CCOC(=O)C1CCN(C(=O)c2ccc3c(c2)NC(=O)C(CS(=O)(=O)Cc2ccccc2Cl)N3)CC1 (stereo not drawn)
    1.4 | 16.1
101: COc1cccc(NS(=O)(=O)c2cc(C(=O)N3CCN(c4ccccc4)CC3)ccc2NCc2ccc(F)cc2)c1
    / | 0.605
102: O=c1c2cc3c(cc2[nH]c(=S)n1CCN1CCOCC1)OCO3
    0.2 | 1.13
103: O=c1c2cn[nH]c2nc(SCc2cc(=O)n3cc(Br)ccc3n2)n1-c1ccc(Br)cc1
    / | 1.67
104: N#CCCN(C1CCCCC1)S(=O)(=O)c1ccc(Cl)cc1
    1.8 | -0.16
105: COC(=O)c1ccc(C(=O)OC)c(NC(=O)Cn2nc(C(F)(F)F)cc2C)c1
    -0.6 | 0.055
106: CSCc1ccc2oc(C(=O)O)cc2c1
    -0.3 | 0.215
107: CCOC(=O)C1=C(C)N=c2s/c(=C\c3ccc(OC)cc3)c(=O)n2C1c1ccc(OC)c(OC)c1 (stereo not drawn)
    / | -0.045
108: COc1ccc(-c2cc(N)n(S(=O)(=O)Cc3ccccc3)n2)cc1
    -0.5 | 0.215
109: CCOC(=O)c1ccccc1NC(=O)CSc1nc2n[nH]c(C)c2c(=N)n1-c1ccc(OCC)cc1
    / | 0.09
110: Cc1onc(-c2ccccc2Cl)c1C(=O)N1CCCC1
    -0.45 | 0.455
111: N=C1C(c2nc3ccccc3s2)=C(O)CN1/N=C/c1ccc(O)c(O)c1O
    0.85 | /
112: O=C(Nc1nc2ccc([N+](=O)[O-])cc2s1)c1ccc(S(=O)(=O)N2CCc3ccccc32)cc1
    / | 0.045
113: O=C(NCC(=O)N1CCc2ccccc21)c1ccccc1Cl
    1.8 | /
114: O=C(COc1ccccc1)NS(=O)(=O)c1ccccc1
    0.2 | -0.28
115: Cn1c(C(=O)O)ccc1S(=O)(=O)N(Cc1ccccn1)Cc1ccccn1
    -0.1 | 0.26
116: CCOC(=O)C1=C(C)OC(N)=C(C#N)C1c1c(C)nn(-c2ccccc2)c1Cl (stereo not drawn)
    / | 0.01
117: O=C(CCCCCn1c(=S)[nH]c2ccc(Br)cc2c1=O)N1CCN(c2ccccn2)CC1
    / | -1.89
